# Rce1 inh = inhibitors of yeast Ras-converting enzyme | yeast membranes, quenched prenylated peptide cleavage fluorescence | calls only | 290,000 compounds, 0.27% hits;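 active = fall in fluorescence gain of 50% or more versus controls, with final raw signal at or below 3038400; inconclusive = same 50% fall but final raw signal above 3038400; inactive = fall in fluorescence gain under 50%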;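 note: plate controls were neutral control wells for no effect and wells lacking membranes for full effect; tested at 10 µM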
# Target sequence (Q03530 whole entry, looked up): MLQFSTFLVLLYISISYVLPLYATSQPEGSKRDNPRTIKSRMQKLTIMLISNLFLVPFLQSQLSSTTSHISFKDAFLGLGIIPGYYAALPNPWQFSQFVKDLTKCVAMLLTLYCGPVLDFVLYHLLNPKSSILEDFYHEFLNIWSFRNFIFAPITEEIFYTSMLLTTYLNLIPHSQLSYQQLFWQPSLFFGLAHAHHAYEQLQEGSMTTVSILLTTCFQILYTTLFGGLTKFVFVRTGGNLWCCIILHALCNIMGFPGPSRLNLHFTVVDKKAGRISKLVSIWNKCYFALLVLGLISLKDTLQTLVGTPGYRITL
# CSC inhib = blocks cancer stem cells | cancer stem cell-like cells viability, luminescence | inhibition, % at 7.5 µM | 300,000 compounds, 1.1% hits | AID 2717;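 active = mean at 75% or more and at least half the replicates too; inconclusive = mean and replicates disagree; tested in HMLE shEcad cells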;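 note: 0% = median of negative and 100% = median of positive control wells; the first replicate is given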
# HIV Env fusion = HIV envelope-mediated fusion inhibition; HeLa-JRFL Env/CEM21 cell fusion, luciferase; inhibition, % at 12.3 µM; 360,000 compounds, 1.1% hits; AID 651610;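 active = mean replicate inhibition score of at least 50 and every replicate individually at or above 50; inconclusive = only one of the two criteria met; inactive = mean below 50 and not all replicates reaching 50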;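 note: 0% = plate neutral controls and 100% = maraviroc near 300 nM; one replicate is shown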
# MT1-MMP act inh = inhibitors of human MT1-MMP activation | HT1080 RFP-PRO-GFP cells, GFP/RFP ratio fluorescence, overnight; percent of plate control window, DMSO zero | GFP/RFP ratio change, % at 20 µM | P50281 | 360,000 compounds, 0.061% hits;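 active = GFP/RFP ratio change of at least 30% with cell ATP level not reduced by more than half and red fluorescence within 50% of control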; note: strong numbers were not always called active
#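 Assay system – RFP-PRO-GFP reporter HT1080 cells · Compound dosing – single dose of 20 µM compound, 1% DMSO final · Incubation – overnight compound exposure at 37 °C · Measure – GFP/RFP fluorescence ratio · Benchmarks – DMSO wells and RFP-L50D-GFP cells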
# Yeast UUG start = alters start codon recognition fidelity in yeast; S. cerevisiae UUG-firefly luciferase reporter, luminescence/redox ratio; activity score, % at 18.7 µM; 350,000 compounds, 0.13% hits;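 active = replicate mean at a twofold rise or more, about +100% in these data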;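 note: firefly luciferase made from a UUG start codon reports start codon fidelity; reporter light over untreated wells divided by growth signal over untreated wells; some hits fall short of that in this replicate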
# eIF4H FP inh = inhibitors of RNA binding by human eIF4H; 290,000 compounds, 0.94% hits; inhibition, % at 35 µM; eIF4H fluorescence polarization binding assay; Q15056;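 active = 50% or more with normal probe brightness, or confirmed in later tests; inconclusive = above 50% with abnormal brightness, or retests that disagree; inactive = below 50% or failed in later tests; about a fifth of its hits are not listed in these tables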;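 note: calls also rest on retests at 20 µM and on dose response follow-up; 0% = protein and probe with vehicle and 100% = probe without protein; strong numbers were not always called active; many hits fall short of the cut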
# PABP polyA inh = PABP-poly(A) binding inhibition; P11940; PABP-poly(A) RNA binding, fluorescence polarization; inhibition, % at 35 µM; 290,000 compounds, 1% hits; AID 2014;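 active = 50% or more with normal probe brightness, or confirmed in later tests; inconclusive = above 50% with abnormal brightness, or retests that disagree; inactive = below 50% or failed in later tests; about a fifth of its hits are not listed in these tables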;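 note: calls also rest on retests at 20 µM and on dose response follow-up; controls were probe without protein and protein plus probe with vehicle; some compounds called inactive have numbers as strong as hits; many hits fall short of the cut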
# eIF4H FP inh retest = recorded beside eIF4H FP inh, whose call it bears; inhibition, %; compound at 20 µM; confirmation average;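 mean of two retest wells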
# PABP polyA inh retest = further read-out of PABP polyA inh, marked with its call; inhibition, %; compound at 20 µM; confirmation repeats;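 mean of two retest wells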
# MT1-MMP act inh RFP = recorded beside MT1-MMP act inh, whose call it bears; RFP signal change, %; measured here: RFP expression control read;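 0 = vehicle wells; hits needed this value within 50% of zero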
# The depositor's hits bear a star; i = inactive; ? = inconclusive; . = no result given; + = active, no number; & = joins results of further samples; ! = not confirmed by another sample. This is a subset, so the mix of outcomes need not match the whole.
SMILES,Rce1 inh,CSC inhib,HIV Env fusion,MT1-MMP act inh,MT1-MMP act inh RFP,Yeast UUG start,eIF4H FP inh,PABP polyA inh,others
COc1ccc(/C(O)=C2\C(=O)C(=O)N(c3cc(C)on3)C2c2cccc(OC)c2OC)cc1C (configuration not stated),i,-1,.,-3,-3,-4,1,6,
CC1CCCCN1C(=O)COC(=O)c1n[nH]c2ccccc12 (configuration not stated),i,-12,.,-1,2,-7,-12,-5,
COc1ccc2nc(-n3c(C)ccc3C)sc2c1,i,-1,.,-4,-3,3,11,15,
COCc1cc(Sc2ccc(Cl)cc2)nc(C)n1,i,5,1,4,-2,.,?,?,
CCOC(=O)c1sc(=NC(=O)CCSc2ccccc2)n(C)c1C,i,0,-25,1,-9,.,-7,-10,
O=[N+]([O-])c1ccc(CN2CCN(c3ccccc3)CC2)o1,i,-12,15,2,3,-13,7,7,
CCOc1ccc(NC(=O)N(C2CCCCC2)C(C)c2ccncc2)cc1 (configuration not stated),i,14,.,4,5,-27,2,-4,
COc1ccc(N2CCN(CC(=O)Nc3ccc(-n4cnnn4)cc3)CC2)cc1,.,-2,.,3,3,-3,-3,-2,
CC(C)C[C@@H](CO)N1CCN(CCc2ccccc2)CCC1=O,i,3,1,-1,4,5,6,-7,
COc1cc(C=C(c2nc3ccccc3s2)c2nc3ccccc3s2)ccc1O,i,94*,7,-2,64,-8,-2,-10,
CCNC(=O)N1CCOCC1,i,8,13,-6,-1,.,-3,2,
Cc1c(/C=N/n2cnnc2)c2ccccc2n1CCOc1ccc(Cl)cc1,i,7,36,5,-13,-34,-11,-2,
CC(=O)N1CCc2cc(S(=O)(=O)NC(C)c3ccccc3)ccc21 (configuration not stated),i,3,-2,3,-10,-11,0,10,
CCC(C)Sc1cc(-c2nc3ccccn3c2NC2CCCCC2)ccc1OC (configuration not stated),+,126*,59*!,2&1,-21&-8,-2,.,.,
Cc1c(/C(Cc2ccccc2)=N/O)c2ccccc2n1C,i,19,.,1,-1,-13,2,5,
Cc1ccc(/C(N)=N/OC(=O)c2ccc(F)cc2)cc1,i,-5,-283,-4,-1,-1,-5,7,
O=C1CCC(=O)N(O)CCCCCNC(=O)CCC(=O)N(O)CCCCCNC(=O)CCC(=O)N(O)CCCCCN1,i,40,.,6,7,-16,16,4,
O=C(COc1ccccc1)NCC(=O)N/N=C/c1cccs1,i,-6,-7,-1,2,-8,.,.,
O=C(CSc1nc(O)c(Cc2ccccc2)c(=O)n1-c1ccccc1)N1CCOCC1,i,-2,.,2,5,-8,-5,10,
O=C(CNc1ccccc1OC(F)F)N1CCc2ccccc21,i,7,-37,1,-7,.,-3,-7,
CC(=O)c1cccc(NC(=O)C(C)OC(=O)CCCN=C2NS(=O)(=O)c3ccccc32)c1 (configuration not stated),i,-15,-2,1,2,.,.,.,
Cc1ccc(-n2c(N)cc(=O)nc2SCC(=O)N2CCN(c3ccccc3)CC2)cc1C,i,-7,6,-1,2,-7,-5,-5,
CC(=O)Oc1ccc(Oc2ccc(-c3noc(C)n3)cc2)cc1,i,56,26,-2,-7,-16,-4,-2,
COCc1ccc(C(=O)NC2CCCN(Cc3ccccc3F)C2)o1 (configuration not stated),i,-5,-10,-1,1,-2,-5,-15,
C[Si](C)(C)n1ccnc1,i,-5,.,0,3,-4,1,-4,
CC(C)(C)/C(O)=C/c1nc2ccccc2oc1=O,i,6,14,1,4,.,23,17,
Cc1ccsc1C(=O)NCCc1ccco1,.,11,.,-4,1,-35,.,.,
COc1ccc(NC(=S)N2CCC(C(=O)c3ccc(OC)cc3)CC2)cc1,i,-17,30,-2,-3,29,-5,5,
O=C(/C=C/Nc1ccc(S(=O)(=O)Nc2cnc3ccccc3n2)cc1)c1cccnc1,i,-7,-12,-5,-2,-25,-10,-2,
Cc1ccc(CNC(=O)c2ccc(F)c(S(=O)(=O)N3CCOCC3)c2)cc1,.,.,3,-1,1,-20,.,.,

# 16 entries from above, arranged by heavy-atom count, smallest number first.
SMILES,Rce1 inh,CSC inhib,HIV Env fusion,MT1-MMP act inh,MT1-MMP act inh RFP,Yeast UUG start,eIF4H FP inh,PABP polyA inh,others
C[Si](C)(C)n1ccnc1,i,-5,.,0,3,-4,1,-4,
CCNC(=O)N1CCOCC1,i,8,13,-6,-1,.,-3,2,
Cc1ccsc1C(=O)NCCc1ccco1,.,11,.,-4,1,-35,.,.,
COc1ccc2nc(-n3c(C)ccc3C)sc2c1,i,-1,.,-4,-3,3,11,15,
Cc1ccc(/C(N)=N/OC(=O)c2ccc(F)cc2)cc1,i,-5,-283,-4,-1,-1,-5,7,
Cc1c(/C(Cc2ccccc2)=N/O)c2ccccc2n1C,i,19,.,1,-1,-13,2,5,
O=C(COc1ccccc1)NCC(=O)N/N=C/c1cccs1,i,-6,-7,-1,2,-8,.,.,
O=C(CNc1ccccc1OC(F)F)N1CCc2ccccc21,i,7,-37,1,-7,.,-3,-7,
CC(=O)N1CCc2cc(S(=O)(=O)NC(C)c3ccccc3)ccc21 (configuration not stated),i,3,-2,3,-10,-11,0,10,
COCc1ccc(C(=O)NC2CCCN(Cc3ccccc3F)C2)o1 (configuration not stated),i,-5,-10,-1,1,-2,-5,-15,
Cc1c(/C=N/n2cnnc2)c2ccccc2n1CCOc1ccc(Cl)cc1,i,7,36,5,-13,-34,-11,-2,
CCC(C)Sc1cc(-c2nc3ccccn3c2NC2CCCCC2)ccc1OC (configuration not stated),+,126*,59*!,2&1,-21&-8,-2,.,.,
O=C(CSc1nc(O)c(Cc2ccccc2)c(=O)n1-c1ccccc1)N1CCOCC1,i,-2,.,2,5,-8,-5,10,
CC(=O)c1cccc(NC(=O)C(C)OC(=O)CCCN=C2NS(=O)(=O)c3ccccc32)c1 (configuration not stated),i,-15,-2,1,2,.,.,.,
COc1ccc(/C(O)=C2\C(=O)C(=O)N(c3cc(C)on3)C2c2cccc(OC)c2OC)cc1C (configuration not stated),i,-1,.,-3,-3,-4,1,6,
O=C1CCC(=O)N(O)CCCCCNC(=O)CCC(=O)N(O)CCCCCNC(=O)CCC(=O)N(O)CCCCCN1,i,40,.,6,7,-16,16,4,

# (cont.)
SMILES,Rce1 inh,CSC inhib,HIV Env fusion,MT1-MMP act inh,MT1-MMP act inh RFP,Yeast UUG start,eIF4H FP inh,PABP polyA inh,others
CN[C@H]1CCc2cc(OC)c(OC)c(OC)c2-c2ccc(N(C)CC(OC)OC)c(=O)cc21,i,80*,-118,15,1,9,2,7,
COC(=O)CNC(=O)COC(=O)/C=C/c1cccs1,i,-6,-11,0,3,-12,2,1,
O=C(OCc1nc2ccc(Cl)cc2n1CCO)c1ccc(O)cc1,i,-6,26,1,3,-25,9,5,
CCOC(=O)c1cc(-c2ccc(/C=C3/C(=O)N(c4ccc(C(=O)O)cc4)N=C3C)o2)ccc1Cl,i,56,-21,5,8,-11,91,28,eIF4H FP inh retest=9;PABP polyA inh retest=11
COc1ccc(Cc2nnc(NC(=O)CSc3ccc(C)cc3)s2)cc1OC,i,-6,.,-1,-1,-9,-20,-1,
CN(C)S(=O)(=O)c1ccc(N2CCCC2)c(C(=O)Nc2ccccc2)c1,i,6,40,-3,-3,-4,.,.,
CCn1c(SCC(=O)N/N=C/C=C/c2ccccc2[N+](=O)[O-])nnc1-c1ccccc1,i,-3,24,-3,0,.,-5,-20,
Nn1c(Cc2ccc(F)cc2)n[nH]c1=S,i,13,8,-1,-3,.,1,-6,
CSCCC(NC(=O)COc1ccccc1)C(=O)N1CCCCC1 (configuration not stated),i,-11,-34,-7,-1,-8,-12,13,
Cc1cc(=O)[nH]c(N/N=C/c2cccc(Br)c2)n1,i,-12,-30,1,0,-20,1,-3,
CC1(C(=O)NS(=O)(=O)c2cccc(OC(F)F)c2)CCN1C(=O)CCc1cccs1 (configuration not stated),.,.,-11,-3,3,-5,.,.,
COc1ccc(NC(=O)CN(C)CC(=O)Nc2ccc(Cl)cc2[N+](=O)[O-])cc1,i,2,-3,-3,-5,2,?,?,
COc1cccc(NC(=O)CCC2CCN(Cc3nccs3)CC2)c1,i,4,-1,-2,4,-7,3,-7,
Cc1csc(/N=C/c2ccc([N+](=O)[O-])cc2)n1,.,0,.,4,2,.,-8,-20,
NNC(=O)c1oc2nc(-c3ccccc3)cc(-c3ccccc3)c2c1N,i,20,-18,-32,1,-16,-8,1,

# Retrieved by compound from above (2):
SMILES,Rce1 inh,CSC inhib,HIV Env fusion,MT1-MMP act inh,MT1-MMP act inh RFP,Yeast UUG start,eIF4H FP inh,PABP polyA inh,others
Cc1csc(/N=C/c2ccc([N+](=O)[O-])cc2)n1,.,0,.,4,2,.,-8,-20,
CN(C)S(=O)(=O)c1ccc(N2CCCC2)c(C(=O)Nc2ccccc2)c1,i,6,40,-3,-3,-4,.,.,

# (listing goes on)
SMILES,Rce1 inh,CSC inhib,HIV Env fusion,MT1-MMP act inh,MT1-MMP act inh RFP,Yeast UUG start,eIF4H FP inh,PABP polyA inh,others
Cn1c(=O)oc2cc(S(=O)(=O)Nc3cccc(F)c3)ccc21,i,-18,-4,-2,2,-14,-3,-2,
CCN(CC)CCCNCC(=O)Nc1ccc2c(c1)CCC2,i,5,9,6,7,.,-7,6,
CC(C)(c1ccc(O)c([N+](=O)[O-])c1)c1ccc(O)c([N+](=O)[O-])c1,.,.,-9,15,-2,25,.,.,
CC(C)OC(=O)Cn1c(=O)oc2ccccc21,i,-7,.,4,6,-3,-9,7,
CC(C)CNC(=S)N1CCC(C(=O)c2ccc3c(c2)OCCO3)CC1,i,-4,15,5,-5,.,-8,1,
Cc1nn(C)cc1C(C(=O)NC1CCCCC1)N(C(=O)Cc1cccs1)c1ccc(Cl)cc1 (configuration not stated),i,.,10,5,-3,1,5,2,
COC(=O)/C(C#N)=C/c1c(N2CCN(C)CC2)nc2ccccn2c1=O,i,2,-87,-2,0,-15,-5,10,
CCc1ccc(-n2cnc3cc(C(=O)NCC(OC)OC)ccc32)cc1,i,-11,13,6,4,-7,-2,14,
CN1C(=S)SC(C)(C)C1(C)NO (configuration not stated),i,2,28,-5,2,-7,-10,8,
CCOC(CNC(=O)Cn1nc(C)c2ccccc21)OCC,i,-9,-5,-5,0,.,-3,6,
COc1ccc(NC(=O)N2CCN(c3nc4ccccc4n3C(C)C)CC2)cc1,i,-7,16,4,-1,.,6,2,
Cc1onc(-c2ccccc2Cl)c1C(=O)NCc1ccc2c(c1)cc(C)n2C,i,6,2,43,59,-4,25,43,
Cc1ccc(C)c(CC(=O)N2CCCCC2c2cc(C(=O)Nc3ccc(F)c(Cl)c3)no2)c1 (configuration not stated),.,.,35,-1,-7,-11,.,.,
CCS(=O)(=O)c1nc(S(=O)(=O)c2ccc(C)cc2)c(NCCCN(C)C)s1,i,-10,-6,-2,5,.,1,6,
O=C(C[C@H]1C/C=C\CC[C@H](Cc2ccc(F)cc2)C(=O)O[C@@H](c2ccccc2)CNC1=O)N[C@@H](CO)Cc1ccccc1,.,-9,.,-9,-13,3,.,.,
CC(C)c1ccc(S(=O)(=O)Nc2ccc(SC(F)F)cc2)cc1,i,.,25,2,-8,.,6,-3,
O=C(Nc1cccc(Cl)c1N1CCOCC1)c1cc([N+](=O)[O-])ccc1N1CCOCC1,i,13,?,1,0,7,-5,-2,
O=C(Nc1ccccc1-c1nnc(SCc2ccc(Cl)cc2)o1)c1ccccc1,i,.,36,-3,-2,-8,0,4,

# Bioassay records (PubChem BioAssay)
